Assay outcomes from PubChem.
HIV TAR-Tat: TAR RNA-Tat peptide displacers, HIV-1, primary screen, biochemical, FRET, FAM/TAMRA-labeled Tat; 100,000 tested, 0.6% active; z-score (concentration not given with the values); HIV-1 TAR RNA, Tat peptide displacement FRET; active compounds read high; AID 1259389, 2018;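 note: score is relative to mean and SD of negative controls; some compounds called inactive have numbers as strong as hits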
CDC25B-CDK2 inh: primary biochemical HTRF screen for blockers of M-phase inducer phosphatase 2 binding to CDK2/cyclin A; z-score (no concentration beside the values); AID 1259370, 2018; P30305+P24941; HTRF CDC25B-CDK2/CyclinA binding, anti-His/anti-Flag; active compounds read high; 94,000 tested, 0.72% active;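 note: score is relative to mean and SD of negative controls; strong numbers were not always called active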
* = called active by the depositor; x = not tested or not shown.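 Rule for the calls: active = z-score from 3 up in half or more of its runs; inactive = the rest.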

smiles	HIV TAR-Tat	CDC25B-CDK2 inh
O=C(NCc1ccc2c(c1)OCO2)C1=Cc2ccccc2OC1	0.56	x
COc1cc([C@@H]2Nc3c(C)cccc3[C@@H]3C=CC[C@@H]32)cc(Br)c1OC	2.7	-0.73
Cc1cc(C)cc(-n2nnc(-c3nc(-c4ccc(Cl)cc4)no3)c2N)c1	0.52	x
CCC(C)NC(=O)C(CC)n1nc(C)n2c(cc3sccc32)c1=O (configuration not stated)	-0.07	0.8
O=C(NCCCN1CCOCC1)C(=O)Nc1ccc2nc3n(c(=O)c2c1)CCCCC3	x	-1.4
COc1ccc2c(c1)C=C(C(=O)N1CCc3ccccc31)CO2	-0.5	x
COC(=O)CN1C(=O)C(C)(C)c2cc(S(=O)(=O)Nc3cccc(Br)c3)ccc21	0.85	x
Fc1cccc(-c2nnn3c2nc(NCc2ccco2)c2cc(Cl)ccc23)c1	-0.11	-1
CCN(CC)S(=O)(=O)c1ccc2c(c1)CC(C(=O)N1CCN(c3ccccn3)CC1)N2C(C)=O (configuration not stated)	1.6	x
CCCc1cc(=O)n2nc(N(C)CC(=O)N3CCCC3)sc2n1	0.85	0.24
c1ccc(-c2noc3c(Nc4ccc5c(c4)OCCO5)ncnc23)cc1	0.09	-1.4
Cc1nnc(Nc2ccccc2O)c2ccccc12	1	-0.09
CC1(C(=O)NC2CCCCC2)Cn2c(ccc2-c2ccco2)C(=O)N1CCN1CCOCC1 (configuration not stated)	-1.1	x
Cn1cnc(S(=O)(=O)N2CCN(c3ccccc3)CC2)c1	1.2	x
O=C(NC1CCCCC1)n1c(=S)oc2cc(Cl)ccc21	1.1	-1.9
Cc1ccn2c(=O)c(C(=O)NCC(C)C)c(O)nc2c1	-0.61	-1.4
O=C(O)c1[nH]c2ccccc2c1S(=O)c1ccccc1 (configuration not stated)	-0.72	0.69
CC(=O)N1c2ccc(S(=O)(=O)N3CCOCC3)cc2CC1C(=O)NC1CCCC1 (configuration not stated)	1.2	x
CC1CCN(S(=O)(=O)c2ccc3c(c2)CCN3C(=O)Nc2ccccc2)CC1	0.65	-2.1
Cc1oc(-c2ccccc2)nc1Cn1c(=O)n(C(C)C)c(=O)c2ccccc21	-0.23	-1.8
Cc1nc2scc(C)n2c(=O)c1S(=O)(=O)Nc1cccc(Cl)c1	0.97	-1.9
CCS(=O)(=O)N1CCN(S(=O)(=O)c2ccccc2)CC1	x	-0.59
Cc1ccc(S(=O)(=O)[C@H]2CS(=O)(=O)C[C@@H]2N2CCN(c3ncccn3)CC2)cc1	1.2	-2.1
COc1ccccc1NC(=O)CSC1=NCCS1	3.3	-2.4
Fc1ccc(N2CCN(Cc3cnc(-c4ccccc4)[nH]3)CC2)cc1	x	-1.2
COc1ccccc1-c1nc(SCc2cc(=O)n3nc(C(C)C)sc3n2)n[nH]1	0.15	x
O=S(=O)(c1ccc(Cl)cc1)N1CCc2cc3ccccc3nc21	-0.69	2.6
O=C(C1CCC(CNc2c(N3CCCC3)c(=O)c2=O)CC1)N1CCN(c2ncccn2)CC1 (configuration not stated)	1.4	-2.2
CCCc1nn2c(=O)cc(CSc3nnc(-c4ccco4)n3C)nc2s1	-0.07	x
COC(=O)C1C(=O)C2=C(CC1C)NC(C)=C(C(=O)OCCOC(C)C)C2c1ccc(N(C)C)cc1 (configuration not stated)	-0.45	-2.1
CN(C(=O)c1nn(C)c2c1CSc1ccccc1-2)C1CCCCC1	0.74	-1.5
Cc1c(NC(=O)Nc2ccccc2Br)sc2nc3n(c(=O)c12)CCC(C)CC3 (configuration not stated)	-0.97	-1.9
CC(C)NS(=O)(=O)c1ccc2[nH]c(=O)c(=O)[nH]c2c1	0.7	0.89
O=c1[nH]c(-c2ccc(Br)cc2)nc2c1Cc1ccccc1O2	0.6	-0.77
CC1=NS(=O)(=O)c2cc(S(=O)(=O)N3CCN(c4cccc(Cl)c4)CC3)ccc2N1	-0.23	-0.49
CCOc1ccc(-c2nn3c(C(F)(F)F)nnc3s2)cc1	0.19	-0.91
CCC(C)Nc1nc2c(S(=O)(=O)c3ccccc3)nnn2c2ccccc12 (configuration not stated)	2.9	-1.8
COc1ccc2[nH]c3c(c2c1)CCCC3O (configuration not stated)	x	0.55
Cc1nn(-c2ccccc2)c(N)c1-c1ccccc1	x	-3
COC(=O)c1sc2ccccc2c1NC(=O)c1cc(Cl)sc1Cl	x	-3.1

Look-ups from the entries so far.
HIV TAR-Tat, COc1ccccc1NC(=O)CSC1=NCCS1 reads 3.3
CDC25B-CDK2 inh, COc1ccc2[nH]c3c(c2c1)CCCC3O (configuration not stated) reads 0.55
CDC25B-CDK2 inh, CCS(=O)(=O)N1CCN(S(=O)(=O)c2ccccc2)CC1 reads -0.59

(continued)
smiles	HIV TAR-Tat	CDC25B-CDK2 inh
CC(C)c1ccc(-c2noc(SCC(=O)NCC3CCCO3)n2)cc1 (configuration not stated)	1.9	x
CC(C)(COC(=O)Nc1ccccc1)COC(=O)Nc1ccccc1	1.8	-0.5
CC(N)C(=O)NC(Cc1ccccc1)C(=O)O (configuration not stated)	1	x
O=C1NC(c2ccc(O)cc2)C(C(=O)c2cccs2)C(O)(C(F)(F)F)N1 (configuration not stated)	x	-2.7
CCOC(=O)c1ccc2nc(C(F)(F)F)nc(NCCCN3CCCC3=O)c2c1	-0.66	-0.43
O=S(=O)(NCCc1cn2ccsc2n1)c1ccc(Cl)cc1	1.7	x
CCCCOc1ccc(S(=O)(=O)n2nc(C)c(S(=O)(=O)N(C)c3ccccc3)c2C)cc1	0.93	x
Clc1ccc2nc(CSc3nc4ccccc4o3)cn2c1	x	-1.7
O=C(Nc1ccc2oc(-c3ccncc3)nc2c1)c1ccc(-c2ccccc2)o1	x	-2.4
Oc1ccc(Cl)cc1Cc1cc(Cl)ccc1O	0.6	x
CC(O)CSc1nc2c(c(=O)n(C)c(=O)n2C)n1CCCc1ccccc1 (configuration not stated)	-0.85	-0.14
C=CCn1c(=S)sc2c(SCC(N)=O)ncnc21	0.99	0.3
Cc1ccc(S(=O)(=O)Nc2ccc3c(c2)N(S(=O)(=O)c2ccc(F)cc2)CCC3)s1	-0.02	x
O=C(CCS(=O)(=O)c1cc2c3c(c1)CCN3C(=O)CC2)Nc1ccc2c(c1)OCCO2	2	x
Cn1c(Cn2c(=O)sc3ccccc32)nnc1SCC(=O)NCc1ccco1	x	-0.58
C#CCn1c(C2CCCN2C(C)=O)nc2ccccc21 (configuration not stated)	1.9	1.4
O=C(Oc1c(CN2CCOCC2)cc(Cl)c2cccnc12)c1ccc(F)cc1	x	-0.07
Cc1cccc(-n2c(C)c(C)c3c2ncn2nc(-c4cccnc4)nc32)c1C	1.5	-1.6
CCOC(=O)C1CCN(c2cc(NCc3ccco3)c3c4c(onc24)-c2ccccc2C3=O)CC1	-4	15*
C[N+](C)(C)CCCCSSCCCC[N+](C)(C)C	x	-1.5

A different layout for two compounds above:
O=C1NC(c2ccc(O)cc2)C(C(=O)c2cccs2)C(O)(C(F)(F)F)N1 (configuration not stated)
  HIV TAR-Tat: x	CDC25B-CDK2 inh: -2.7
CCCCOc1ccc(S(=O)(=O)n2nc(C)c(S(=O)(=O)N(C)c3ccccc3)c2C)cc1
  HIV TAR-Tat: 0.93	CDC25B-CDK2 inh: x

(more compounds)
smiles	HIV TAR-Tat	CDC25B-CDK2 inh
CCOC(=O)c1ccc(NS(=O)(=O)c2ccc3c4c2CC(=O)N4CC(C)S3)cc1 (configuration not stated)	0.98	x
Fc1ccccc1C(c1nnc(-c2ccccc2)o1)N1CCc2ccccc2C1 (configuration not stated)	0.81	x
CCOc1ccc(S(=O)(=O)[C@H]2CS(=O)(=O)C[C@@H]2NCC2CCCO2)cc1 (some centres not stated)	-0.7	-2
CC1=C(c2ccc(C)cc2)S(=O)(=O)N=C1Nc1ccc(CN2CCC(C)CC2)cc1	1.2	0.54
CCOC(=O)c1c(NCc2cc(OC)ccc2O)sc2c1CCC2	0.28	-0.9
CCc1ccc(S(=O)(=O)c2cn(CC)c3ccc(Cl)cc3c2=O)cc1	0.61	-1.1
CCC1CCCCN1CCCNC(=O)C1CCCN(S(=O)(=O)N2CC(C)CC(C)C2)C1 (configuration not stated)	1.3	x
CC12N=NCC1C(=O)N(c1ccc(Cl)cc1)C2=O (configuration not stated)	-0.13	-0.09
CC12C(=O)N(c3ccc(F)cc3)C(=O)C1ON(c1ccccc1)C2c1ccccc1O (configuration not stated)	-0.02	1.1
COc1ccc(Cl)cc1N(C)C(=O)NCc1noc2ccccc12	0.46	x
Cc1cc(C)n(-c2nc3c(c(=O)n2CC(=O)NCc2ccco2)CCC3)n1	1.4	x
Nc1c(-c2nc(-c3ccccc3F)no2)nnn1-c1ccccc1F	0.96	x
COc1ccccc1-n1nnc2c(sc3nc(C)ccc32)c1=O	1.8	1.3
Cc1ccc(Nc2nc(NC3CCCC3)nc3c2cnn3C)cc1C	1.2	x
CCCc1nnc2sc(NC(=O)CC(C)C)nn12	1.6	-1.5
COc1ccc(S(=O)(=O)Nc2cccnc2)cc1OC	1.1	0.15
COc1cccc(-n2nnc(-c3nc(-c4ccc(Cl)cc4)no3)c2N)c1	1.1	x
COc1ccc(S(=O)(=O)NCc2cccn2Cc2ccc(F)cc2)cc1Cl	-0.13	x
CC(Sc1nc2c(c(=O)n(C)c(=O)n2C)n1Cc1cc2c(cc1Cl)OCO2)C(=O)O (configuration not stated)	1.4	-2.2
Cc1nc2nc[nH]n2c(=O)c1NS(=O)(=O)c1ccc(C(C)(C)C)cc1	0.22	-1.5

Part of the list above in order of SMILES length, highest first.
smiles	HIV TAR-Tat	CDC25B-CDK2 inh
CC1(C(=O)NC2CCCCC2)Cn2c(ccc2-c2ccco2)C(=O)N1CCN1CCOCC1 (configuration not stated)	-1.1	x
CC(=O)N1c2ccc(S(=O)(=O)N3CCOCC3)cc2CC1C(=O)NC1CCCC1 (configuration not stated)	1.2	x
O=S(=O)(NCCc1cn2ccsc2n1)c1ccc(Cl)cc1	1.7	x
O=C(NC1CCCCC1)n1c(=S)oc2cc(Cl)ccc21	1.1	-1.9
CC(N)C(=O)NC(Cc1ccccc1)C(=O)O (configuration not stated)	1	x
Oc1ccc(Cl)cc1Cc1cc(Cl)ccc1O	0.6	x

(further entries)
smiles	HIV TAR-Tat	CDC25B-CDK2 inh
CN1CCN(CCN2C(=O)c3ccc(-c4ccco4)n3CC2(C)C(=O)NC2CCCC2)CC1 (configuration not stated)	0.43	x
Cc1ccc(/C(O)=C2/C(=O)C(=O)N(CC(C)C)C2c2ccccn2)cc1 (configuration not stated)	0.82	-1.3
O=C1N(c2ccccc2)C2CS(=O)(=O)CC2N1c1ccc(Cl)cc1 (configuration not stated)	0.75	-0.5
O=C(Cn1cc2c(n1)CCCCC2)Nc1ccc(Cl)cc1	x	-1.1
O=C(Cn1cnc2c(nc3n2CCCCC3)c1=O)N1CCN(c2ccccc2F)CC1	0.91	x
CCOc1ccccc1C1C(C#N)=C(N)OC2=C1C(=O)CC(C)(C)C2 (configuration not stated)	x	-1.3
COc1ccccc1CNC(=O)CC1N=C2c3ccccc3N=C(SCC(N)=O)N2C1=O (configuration not stated)	x	-1.9
Cc1nc2c(-c3ccc(F)cc3)c(C)nn2c(C)c1CCC(=O)NC(C)CCc1ccco1 (configuration not stated)	x	-0.35
Cc1c(C(=O)N(C)C)sc2c1c(=O)n(-c1ccc(Cl)cc1)c(=O)n2CC1OCCO1	x	-2.2
CCOC(=O)N1CCC(n2c(SCC(=O)c3ccccc3)nc3ccccc3c2=O)CC1	1.6	x
Cc1cc(C)nc(SCc2cn3cccnc3n2)n1	x	-0.42
Fc1cccc(NC(=S)NCc2ccc3c(c2)OCO3)c1	x	0.15
Cc1cc(C)c(S(=O)(=O)NCC(c2ccc(N(C)C)cc2)N2CCOCC2)c(C)c1 (configuration not stated)	0.73	x
CC(CC(=O)NCc1ccco1)CC1=NS(=O)(=O)c2ccccc2N1 (configuration not stated)	9.5*	x
c1ccc(N2CCN(c3nc4ccccc4c4nc(-c5cccnc5)nn34)CC2)nc1	-1.1	-1.7
CN(C(=O)C(=O)c1c[nH]c2ccccc12)c1ccccc1	-0.27	-1.1
COC(=O)c1cc(S(=O)(=O)N(CCN2CCOCC2)Cc2ccco2)c[nH]1	1.2	x
O=C(CSc1nc2c(c(=O)[nH]1)CCCC2)Nc1ccc2c(c1)OCO2	0.56	-2.5
CCOCCCN1CC(O)=C(c2nc3ccccc3[nH]2)C1=N	-0.17	-1.6
COc1ccc(-c2coc3cc4oc(=O)c5c(c4cc23)CCCC5)cc1	x	-1.5
Cc1cccc(-n2nnc(-c3nc(-c4ccccc4F)no3)c2C)c1	0.87	x
O=C(/C=C(\C(=O)c1ccccc1)c1ccccc1)c1ccc2c(c1)OCCO2	x	-0.21
O=C(CC(=O)c1ccccn1)c1ccccn1	x	0.69
CC1(C)CC(=O)c2sc(NC(=O)C(C)(C)Oc3ccc(Cl)cc3)nc2C1	x	0.07
Cc1oc(C(C)(C)C)cc1C(=O)/C(C#N)=C/Nc1ncccn1	x	-1.1
COc1ccc(NS(=O)(=O)c2ccc3oc(=O)c4ncn(C)c4c3c2)c(OC)c1	0.8	x
Cc1ccc(C)c(-c2csc(N)n2)c1	0.35	-2.6
CCSc1nnc(NC(=O)CSc2nnc(Cc3cccn3C)n2C)s1	1	0.34
CCCOC(=O)Cc1c(O)c2ccccc2[nH]c1=O	1.8	x
COC(=O)N1c2ccccc2NC(=O)CC1C (configuration not stated)	-0.49	-0.89
CN1C(=O)c2ccc(N3C(=O)c4ccc(C(=O)O)cc4C3=O)cc2C1=O	x	-0.5
